Assay outcomes (PubChem)
2A Renilla – FMDV 2A StopGo reporter, Renilla signal. HEK cells with a luciferase reporter of 2A StopGo recoding. Potency, µM (highest dose often 57.5 µM), inactives show at the highest dose signal change, negative = less light. hit rate 0.32% among 120,000. AID 1745857; active means well fitted falling curve with a large enough effect; inconclusive means small, poorly fitted or top-dose-only effect; inactive means no such curve, though single readings can be large or run the other way; note: nearly all actives have a fitted effect of over 55% in size; overnight with compound
2A firefly – lowers the firefly signal of an FMDV 2A StopGo reporter. HEK cells with a luciferase reporter of 2A StopGo recoding. Potency, µM (highest dose often 57.5 µM), inactives show top-dose signal change, negative = less light. hit rate 0.23% among 120,000. AID 1745856; active = well fitted falling curve with a large enough effect; inconclusive = small, poorly fitted or top-dose-only effect; inactive = no such curve, though single readings can be large or run the other way; note: nearly all actives have a fitted effect of over 60% in size; overnight with compound
* marks the source's active call; other numbers are inactive results; ? = inconclusive; & = joins results of further samples; [ ] = remark or other dose. % is set by controls: 0 for no effect and ±100 for the full control effect; potency is the fitted concentration of half-maximal effect. The list is partial; count on the stated rates, not on these rows.

Results follow in this order: 2A Renilla, 2A firefly
> Cc1c2cnn(-c3ccccc3)c(=O)c2c(C)n1CCCC(=O)Nc1ccc(F)cc1F
→ -9.4%, 13.2%
> O=C(Nc1cccc(F)c1)C1=Cc2sc3c(c2CS1)CCCC3
→ 3.3%, 83.8%[activator]
> COc1cc(NS(=O)(=O)c2ccc(NC(=O)c3ccc(Cl)cc3Cl)cc2)nc(OC)n1
→ 11.8%, -20.1%
> O=C(NC1CC(=O)N(c2ccccc2)C1)C1CCCC1 (stereo unspecified)
→ -8.3%, -10.6%
> COc1ccc(Cl)cc1NC(=O)[C@H]1O[C@@H]2OC(C)(C)O[C@@H]2[C@H]2OC(C)(C)O[C@H]21
→ -3.4%, -19.1%
> Clc1ccc(Sc2ccc3nnnn3n2)cc1
→ -1.0%, 4.9%
> CCCCc1cc(=O)oc2c(C)c(OCC(=O)NCCN(C)C)ccc12
→ -6.2%, -5.6%
> Cc1c(CC(=O)NCc2ccccc2Cl)c(=O)oc2c(C)c(O)ccc12
→ 16.2%, 23.0%
> COc1ccc(S(=O)(=O)N2CCN(Cc3ccc4c(c3)OCO4)CC2)cc1C
→ -9.1%, -22.8%
> N/C(=N\N=C\c1ccccc1F)N[N+](=O)[O-]
→ 4.1%, 71.8%[activator]
> COc1ccc(NC(=O)CCCc2nnc3n(CCC(C)C)c(=O)c4sccc4n23)c(OC)c1
→ -10.7%, -11.3%
> O=C(COc1ccccc1)NCCc1csc(-c2cccnc2)n1
→ 1.4%, 14.5%
> CCOc1ccc(S(=O)(=O)Nc2ccc3c(c2)CCCN3S(=O)(=O)c2ccc(C)cc2)cc1
→ 178.7%[activator], -16.8%
> Cc1ccc(NC(=O)CSc2nccn2Cc2ccccc2Cl)cc1
→ 24.7%, 56.7%[activator]
> NCCC(=O)Nc1ccccn1
→ 1.8%, -3.8%
> CCCn1nc(C(=O)OCC(=O)NC(C)c2ccccc2)c2ccccc2c1=O (stereo unspecified)
→ -10.4%, -7.5%
> CC(Sc1nc(C(F)(F)F)nc2ccccc12)C(=O)NCC1CCCCC1 (stereo unspecified)
→ -5.7%, -6.7%
> C#CCNC(=O)C(CCSC)NC(=O)c1ccc2ccccc2n1 (stereo unspecified)
→ 35.8%[activator], -3.6%
> CC(=O)c1cccc(NC(=O)[C@H]2O[C@@H]3OC(C)(C)O[C@@H]3[C@H]3OC(C)(C)O[C@H]32)c1
→ 20.2%, 11.4%
> COc1ccc(CNC(=O)C2CCN(S(=O)(=O)c3ccc(F)cc3)CC2)cc1
→ 16.4%, ?
> C=CCOc1cccc(NC(=O)CCc2ccccc2)c1
→ 17.8%, 148.9%[activator]
> CCN(CC)Cc1ccc(CNS(=O)(=O)c2cccs2)cc1
→ 27.0%, -1.3%
> CCOc1ccc(N(C(=O)c2ccc(Cl)cc2)S(=O)(=O)c2ccc3c(c2)n(C)c(=O)n3C)cc1
→ 6.6%, -8.5%
> CCCCc1nn2c(=O)cc(COC(=O)c3ccccc3C)nc2s1
→ -5.3%, 36.9%[activator]
> Cc1ccc(N(C(C)C(=O)N2CCCC2)S(C)(=O)=O)cc1 (stereo unspecified)
→ -7.5%, -5.3%
> O=C(CN1C(=O)COc2ccc(S(=O)(=O)N3CCCCC3)cc21)NCc1ccc(F)cc1
→ 2.2%, -18.5%
> C=CCNC(=O)NC(=O)CN(CC(O)CC)c1ccccc1 (stereo unspecified)
→ 19.4%, 0.8%
> Cc1ccccc1OCCn1c(=N)n(C(C)C)c2ccccc21
→ -3.0%, -21.4%
> CCCCn1nc(C(=O)Nc2cc(F)ccc2C)c2ccccc2c1=O
→ -3.1%, 2.2%
> O=C(COC(=O)c1ccc(C(=O)c2ccccc2)cc1)c1ccc(-c2ccccc2)cc1
→ -8.1%[1.06 µM], 15.5%
> OC(COc1ccc(OCC(O)CN(Cc2ccccc2)Cc2ccccc2)cc1)CN(Cc1ccccc1)Cc1ccccc1 (stereo unspecified)
→ 16.0%, 247.1%[activator]
> COc1ccc(NC(=O)Cc2noc3ccc(C)cc23)cc1Cl
→ -5.9%, 10.5%
> CCOC(=O)C1CCCN(C(=O)c2c(C)nn(-c3ccc(F)cc3)c2-n2cccc2)C1 (stereo unspecified)
→ 10.5%, 4.4%
> CCOc1ncccc1C(=O)N(Cc1nnc(-c2ccccc2Cl)o1)C(C)C
→ 9.6%, -2.2%
> O=C(c1ccccc1)n1nc(-c2ccco2)nc1NCc1cccs1
→ 6.5%, 35.2%[activator]
> O=[N+]([O-])c1ccc(OC[C@@H](O)CN2CCC(C(O)(c3ccccc3)c3ccccc3)CC2)c(Cl)c1
→ 1.8%, -6.0%
> O=C1C[C@@H](c2ccccc2)N=C2N(Cc3ccc4c(c3)OCO4)C/C(=C/c3ccccc3)N12
→ 266.4%[activator], 31.1%[activator]
> COC(=O)c1ccc2c(c1)N(CC(=O)Nc1ccc(C)cc1Cl)C(=O)c1ccccc1S2
→ -1.9%, 3.8%
> CC(Oc1ccc2c(-c3ccccc3)cc(=O)oc2c1)C(=O)NCCCN1CCOCC1 (stereo unspecified)
→ 4.4%, -6.8%
> CC1CN(CCOc2ccc(C#N)cc2)CCO1 (stereo unspecified)
→ ?, ?
> O=C(Nc1ccc(-c2nc3ccccc3o2)cc1)c1ccc2ccccc2c1
→ -11.2%, 1.9%
> CC(C)NC(=O)c1cnc2sc(N3CCCCCC3)nn2c1=O
→ -5.1%, 12.3%
> Cc1noc(-c2ccc(N3CCCCC3C)c([N+](=O)[O-])c2)n1 (stereo unspecified)
→ 4.9%, 188.7%[activator]
> Cc1cccn2cc(-c3cccc(NC(=O)C(C)C)c3)nc12
→ 33.9%[activator], 185.3%[activator]
> N#Cc1ccc(C(=O)NC2CCCC(C(F)(F)F)C2)cc1 (stereo unspecified)
→ 11.6%, 92.2%[activator]
> CC(=O)c1ccc(N2CCN(C(=O)CCc3ncc(-c4c(F)cccc4F)o3)CC2)c(F)c1
→ -10.7%, -8.8%
> Cc1cccc(N2C(=O)c3ccccc3NC2c2cn(C)c(=O)n(C)c2=O)c1 (stereo unspecified)
→ 6.1%, 230.0%[activator]
> COc1ccc2c(c1)CC/C(=C\c1cccc(Br)c1)C2=O
→ 10.3%&14.7%, 113.9%&119.5%[activator]
> COc1ccc(C2CC(C)=NN2c2nc(-c3ccc(F)cc3)cs2)cc1OC (stereo unspecified)
→ -0.2%, 33.4%[activator]
> Cc1cc(C)c2oc(C(=O)Nc3ccc(S(=O)(=O)N(C)Cc4ccccc4)cc3)cc(=O)c2c1
→ 12.3%, 9.6%
> CC(C)c1ccc2cc(C(=O)NCc3ccco3)[nH]c2c1
→ 130.4%[activator], 113.1%[activator]
> O=C(NCCNC(=O)c1cc2ccccc2[nH]1)C(=O)N1CCN(c2ccccc2)CC1
→ -7.1%, -17.4%
> Oc1c(Br)cc(Br)c2cccnc12
→ -3.1%, -4.5%[11.5 µM]
> CCCCN(C)CCCNC(=O)CN1C(=O)COc2ccc(S(=O)(=O)N3CCOCC3)cc21
→ -4.2%, -7.2%
> COc1ccc(-n2c(Cc3ccccc3)nnc2SCc2nc(-c3ccccc3C)no2)cc1
→ -7.4%, -15.6%
> CC1=C(C(=O)Nc2ccccc2)C(c2ccc(C)cc2)NC(=O)N1 (stereo unspecified)
→ 3.5%, 10.0%
> CC1Cc2cc(S(=O)(=O)CCC(=O)Nc3ccc(F)c(Cl)c3)ccc2N1C(=O)C1CC1 (stereo unspecified)
→ -8.0%, -19.5%
> CC(=O)N1c2ccccc2CC1C(=O)N1CCN(c2cc(Cl)ccc2C)CC1 (stereo unspecified)
→ -17.1%, -26.7%
> COc1ccc2c(c1)c(C(=O)NC(C)CCC(C)C)c(C)n2C1CC1 (stereo unspecified)
→ 6.9%, 0.5%
> Cc1cccc(C)c1NC(=O)c1ccc2c(c1)nnn2C1CCCC1
→ 32.1%[activator], 15.1%

Among those listed so far, these have two or more sulfur atoms:
Results follow in this order: 2A Renilla, 2A firefly
> O=C(Nc1cccc(F)c1)C1=Cc2sc3c(c2CS1)CCCC3
→ 3.3%, 83.8%[activator]
> CCOc1ccc(S(=O)(=O)Nc2ccc3c(c2)CCCN3S(=O)(=O)c2ccc(C)cc2)cc1
→ 178.7%[activator], -16.8%
> CCN(CC)Cc1ccc(CNS(=O)(=O)c2cccs2)cc1
→ 27.0%, -1.3%

(listing goes on)
SMILES	2A Renilla	2A firefly
CC(=O)c1c(C)[nH]c(C(=O)CSc2nnc(C3CCCCC3)o2)c1C	?	?
COc1cc(NC(=O)C2CCN(S(=O)(=O)c3c(C)noc3/C=C/c3c(C)cc(C)cc3C)CC2)cc(OC)c1	2.9%	-16.9%
O=S(Cc1cccc(C(F)(F)F)c1)Cc1cccc2ccccc12 (stereo unspecified)	-18.1%	-28.6%
O=C(COc1ccccc1Cl)N(Cc1cccc(F)c1)C1CCS(=O)(=O)C1 (stereo unspecified)	-1.9%	-3.6%
CNC/C=C/COc1ccc(C)c(C)c1	-19.2%	3.8%
CC1=C(C(=O)NCc2ccccc2)C(c2ccccc2)NC(=S)N1 (stereo unspecified)	0.3%	-14.3%
CCOC(=O)CSc1nc2c(c(=O)[nH]c(=O)n2C)n1Cc1ccc(C)cc1	-10.6%	0.9%
CN(C)c1ccc2c(c1)COC2=O	20.8%	16.3%
Cc1ccc(C)c(-n2nnnc2SCC(=O)Nc2cc(C)nn2-c2ccccc2C)c1	-1.6%	-11.0%
COC(=O)C1=CN(Cc2cccs2)C=C(C(=O)OC)C1c1cccc(OC)c1	7.5%	-19.8%
Cc1ccc(C(=O)N(Cc2ccco2)C2CC2)cc1C	110.9%[activator]	10.6%
COC(=O)CNC(=O)C1CCN(c2ncnc3sc4c(c23)CCCC4)CC1	-15.2%	-3.8%
CCOC(=O)c1c(C)oc2ncnc(N3CCN(c4cccc(Cl)c4)CC3)c12	-12.3%	-4.5%
CCOC(=O)C(=Cc1c[nH]c2ccccc12)C(=O)OCC	-15.3%	0.0%
Cn1c(N)c(-c2csc(Nc3ccccc3)n2)c(=O)n(C)c1=O	-8.3%	-5.0%
COc1ccc(-c2noc(N3CCN(c4cccc(Cl)c4)CC3)n2)cc1OC	-13.0%	-15.2%
O=c1oc2ccccc2c2nc(-c3ccccc3)c(-c3ccccc3)nc12	2.8%	-6.5%
CC1Sc2ccc(S(=O)(=O)N3CCC(C(=O)N4CCCC4)CC3)cc2NC1=O (stereo unspecified)	-29.6%	-28.2%
Cc1nn(CCC(=O)Nc2cccc(C(F)(F)F)c2)c(C)c1S(=O)(=O)N1CCC(C)CC1	-1.4%	-23.6%
CC(=O)NCCc1sc(-c2cccc(F)c2)nc1C	23.5%	132.1%[activator]
CCC(C)NC(=O)c1ccc2c(c1)NC(=O)CS2 (stereo unspecified)	10.9%	15.2%
Cc1ccc(CNC(=O)Cn2ccn(-c3ccc(C)c(C)c3)c(=O)c2=O)cc1	21.3%	55.7%[activator]
Cc1ccc(NC(=O)c2oc3ccc(S(=O)(=O)N4CCCCC4)cc3c2C)c(C)c1	-3.8%	-5.9%
COc1cccc(-n2c(/C=C/c3ccccc3O)nc3ccccc3c2=O)c1	-24.0%	-4.8%
COc1ccc(CN(C(=O)COc2cccc(C)c2C)c2ccccn2)cc1OC	15.0%	25.9%
CCOC(=O)CCNC(=O)c1cc(F)ccc1Br	-1.1%	29.3%
CCCn1nc(C(=O)Nc2nc(C(C)=O)cs2)c2ccccc2c1=O	14.7%	20.7%
Cc1ccc(Cl)cc1N1CCN(C(=O)CSc2cc(=O)n(C)c3ccccc23)CC1	-15.9%	-21.7%
Cc1ccc(Cl)cc1N1CCN(C(=O)C2CCN(Cc3nc(-c4cccc(Cl)c4)oc3C)CC2)CC1	-23.9%	-22.6%
CC(NC(=O)C1CCCC1)C1CCCO1 (stereo unspecified)	-9.3%	-5.4%

Taken from above.
2A Renilla with `CCOc1ncccc1C(=O)N(Cc1nnc(-c2ccccc2Cl)o1)C(C)C` = 9.6%
2A firefly with `COc1ccc(C2CC(C)=NN2c2nc(-c3ccc(F)cc3)cs2)cc1OC` (stereo unspecified) = 33.4%[activator]
2A firefly with `O=C(CN1C(=O)COc2ccc(S(=O)(=O)N3CCCCC3)cc21)NCc1ccc(F)cc1` = -18.5%
2A firefly with `CC(=O)c1ccc(N2CCN(C(=O)CCc3ncc(-c4c(F)cccc4F)o3)CC2)c(F)c1` = -8.8%

Other structures.
SMILES	2A Renilla	2A firefly
COc1cc2c(-c3cc(Br)ccc3O)nc3c(c(C)nn3-c3ccccc3)c2cc1OC	-2.8%	-14.0%
CCc1nc2ccc(C(=O)N3CCN(c4cc(C)ccc4C)CC3)cc2nc1CC	18.2%	1.2%
CC(C)(C)NS(=O)(=O)c1ccc(NC(=O)C2c3ccccc3Oc3ccccc32)cc1	47.1%[activator]	19.3%
CCCCNC(=O)C1CCC(C(=O)NCCCC)CC1 (stereo unspecified)	-0.2%	-1.3%
O=C(O)c1ccc(COc2ccccc2Cl)o1	11.6%	82.0%[activator]
CN(CCOc1ccc(Cl)cc1)Cc1nc(C2CC2)no1	1.0%	12.0%
Cc1cc(C)n2ncc(-c3noc(C(=O)NC4CCCCCC4)n3)c2n1	8.1%	5.2%
COCc1cnc2c(c1SCc1ccc(C)cc1)c(=O)n(C)c(=O)n2C	-19.2%	-7.5%
Cc1ccc(Cl)cc1NC(=O)COc1ncnc2ccc(Br)cc12	-5.8%	6.5%
CCCNc1nc2c(c(=O)n(C)c(=O)n2C)n1CC	1.0%	14.0%
CC1CCCCN1CCCNC(=O)CN1C(=O)c2cccnc2Oc2ccccc21 (stereo unspecified)	-11.1%	-15.1%
CN(CC(=O)NC(=O)NCc1cccs1)Cc1cccs1	20.5%	0.0%
CCCC(=O)Nc1cc2nn(-c3ccc(OC)cc3)nc2cc1C	4.4%	113.7%[activator]
